Screening results: PubChem, several laboratories
Mtb hypoxia inh: PubChem AID 1159583; M. tuberculosis hypoxia-regulated fluorescent reporter, fluorescence; fluorescence inhibition, % (test concentration not listed); hit rate 0.1% among 300,000;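 active = 35 to 45% if threefold the growth effect, above 45% if 1.5-fold the growth effect; inactive = the rest, general growth blockers included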;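 note: wells of about 50 µL received 100 nL stock; 0% = vehicle wells and 100% = reference inhibitor wells; whole bacteria with a GFP reporter of the hypoxia response; strong numbers were not always called active; many hits fall short of the cut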
RN4220 kill: growth inhibition of S. aureus RN4220, primary screen, OD600. 16 h. AID 1259311, 2017. inhibition, % (concentration not given with the values). hit rate 0.33% among 330,000;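 active = z-score of -3 or lower and OD600 up to 0.18 on both plates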;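 note: plate controls were untreated cells for no effect and reference antibiotic for full effect; stock transfer was 100 nL into about 80 µL; one replicate is shown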
BJeLR viability: MLPCN primary cell-based screen for lethality selective to Ras in HRASV12 cells. BJeLR (HRASV12) viability, CellTiter-Glo ATP luminescence, 48 h; reference of the scale not given here. inhibition, % (concentration not given with the values). hit rate 0.17% among 300,000. AID 1554, 2009;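 active = replicate mean above 50%; inconclusive = above 50% but judged a plate artefact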;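 note: 50 nL library stock added to about 25 µL; numbers are from one replicate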
Sa ugtP lethal: growth inhibition of ugtP-null S. aureus, primary screen, RN4220 ugtP deletion, OD600; 16 h; some inactives read as strong as hits; growth inhibition, % (concentration not given with the values); hit rate 0.54% among 330,000; AID 1259309, 2017;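 active = z-score under -3 and OD600 up to 0.15 on both plates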;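 note: plate controls were untreated wells for no effect and antibiotic for full effect; wells of about 80 µL received 100 nL stock; the first replicate is given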
Bead autofluor: flagged as autofluorescent in microsphere protease counterscreen; compound autofluorescence counterscreen, microsphere flow cytometry; stronger effect = higher value; fluorescence intensity (no concentration beside the values); hit rate 3.1% among 360,000; AID 624483;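 active = at least 3 SD above the mean of all compounds, about 16000 in these data; inconclusive = too few beads counted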;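 note: 100 nL of 1 mM stock went into each well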
PrP UTR inh: inhibition of PrP 5' UTR reporter expression | cell-based PrP 5' UTR mRNA reporter, plate reader | inhibition, % (no concentration beside the values) | hit rate 0.35% among 340,000 | AID 488862, 2010;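 active = every replicate at 50% or more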;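 note: 0 = median of the neutral control wells; tested in H4 reporter cells; numbers are from one replicate; inactives centre near -14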
Mtb hypoxia inh growth: recorded beside Mtb hypoxia inh, whose call it bears; growth inhibition, %; measured here: M. tuberculosis growth (absorbance);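 0% = vehicle and 100% = reference antibiotic; read after six days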
* hit, by the source's call; ? = inconclusive; · = not tested or not shown; & = joins results of further samples.

SMILES	Mtb hypoxia inh	Mtb hypoxia inh growth	RN4220 kill	BJeLR viability	Sa ugtP lethal	Bead autofluor	PrP UTR inh
Cc1ccc(S(=O)(=O)N(CC(=O)NN=C2CCN(C)CC2)c2ccc(C(C)C)cc2)cc1	1	10	1.7	-10	-6	4660	-28
CCNc1nc2c(c(=O)n(Cc3ccccc3)c(=O)n2C)n1Cc1ccccc1	4	-1	-9.6	14	0	3135	-4
COc1ccc(-c2csc(CCn3nc(C)cc3C)n2)cc1OC	2	-6	5.6	-6	2	3423	3
COc1ccccc1N(CC(=O)Nc1ccc(S(=O)(=O)N2CCCCC2)cc1)S(C)(=O)=O	6	-4	3.4	-2	3	22900*	-94
Cc1noc(C)c1CSCC(=O)Nc1ccccc1N1CCCC1	-10	6	7.3	·	6	4624	-9
Cc1c(NC(=O)Nc2ccccc2Cl)c(=O)n(-c2ccccc2)n1C	13	8	3.5	-3	2	3116	-2
CN(C)S(=O)(=O)c1cccc(NC(=O)CCNC(=O)Nc2ccccc2)c1	-4	1	1.1	·	1	8624	-4
Cc1ccc(OCC2Cn3c(nc4c3c(=O)n(C)c(=O)n4C)O2)cc1 (configuration not stated)	·	·	-1.8	9	-1	4887	-20
Cc1ccc(NC(=O)COC(=O)c2cc(Cl)ccc2[N+](=O)[O-])cc1	2	-3	4.6	3	2	2089	-27
Cc1occc1-c1nnc(SCC(=O)c2c(N)n(Cc3ccccc3)c(=O)n(C)c2=O)n1C	16	6	7.0	-5	-4	5853	-18
CCOC(=O)N/N=C1\CCS(=O)(=O)c2ccc(Cl)cc21	·	·	·	-12	·	3363	-30
C/C(=N\NS(=O)(=O)c1ccc(C)c([N+](=O)[O-])c1)c1ccc2c(c1)OCO2	·	·	·	-4	·	4392	-9
O=C(CCC(=O)c1cccs1)Nc1nc2ccccc2s1	-3	-2	0.9	0	-3	4259	-19
NC(=S)N/N=C/c1cccc(O)c1O	·	·	·	-11	·	4146	0
COc1cccc(N2CC(C(=O)Nc3nnc(SCCC4OCCO4)s3)CC2=O)c1 (configuration not stated)	1	11	-1.9	10	6	5340	-14
CC(CCc1ccccc1)OS(N)(=O)=O (configuration not stated)	0	4	0.3	4	3	3619	-23
Cc1cccc(C)c1NC(=O)CCCn1nc(C)c2c(C)n(-c3ccccc3)nc2c1=O	14	5	3.9	-10	4	5156	-5
COc1cc2c(cc1NC(=O)CSc1nnc(COc3ccc(Cl)cc3)n1C)oc1ccccc12	-1	7	23	-1	-6	10788	·
CN(C)S(=O)(=O)c1ccc(C(=O)NC(=O)CSc2nnnn2C)cc1	-1	8	1.2	·	7	4184	-7
CC(=O)Nc1ccc(S(=O)(=O)NCc2ccc3[nH]c(C)cc3c2)cc1	1	3	-7.6	-4	-8	3018	-6
Cc1ccc(-n2ncc3c(NCC4CCCO4)ncnc32)c(C)c1 (configuration not stated)	·	·	0.3	·	3	4565	-29
CC(=O)c1cc2c(cc1NC(=O)c1ccc(C)cc1)OCCO2	·	·	·	0	·	3245	-34
Cc1ccc(C)c(OCC(=O)N2CCN(C(=O)c3ccco3)CC2)c1	2	9	8.0	1	1	10278	-13
O=C(N/C(=C/C=C/c1ccccc1)C(=O)N1CCOCC1)c1ccccc1Br	7	13	2.9	-4	2	4486	-14
Cc1ccc(C(=O)NN=Cc2ccc(OC(=O)c3cccs3)cc2)cn1	-1	3	-2.9	·	-6	·	·
O=C(NCc1ccc(N2CCCC2=O)cc1)c1cc(COc2c(F)cccc2F)on1	7	4	2.7	0	14	6086	-21
Cc1ccc(S(=O)(=O)NC(=NCC(=O)O)c2ccc(F)cc2)cc1	13	3	4.0	6	7	25722*	-29
CC(=O)C1C(c2cccc(F)c2)c2c(n[nH]c2C)CC1(C)O (configuration not stated)	-1	4	1.9	1	6	4116	-25
Cc1nnc(Sc2nc3ccccc3o2)c2ccccc12	15	7	11	6	6	5027	-45
CC(=O)SCC[N+](C)(C)C	7	-3	5.5	7	1	5587	-17
Cc1[nH]c2ccccc2c(=O)c1CN(C)Cc1ccccc1	·	·	1.1	0	0	3223	-29
CCn1nc(C)cc1Nc1ccccc1	14	0	4.0	-9	-4	9728	-35
COc1ccc(C2/C(=C(/O)c3ccccc3)C(=O)C(=O)N2CC(C)O)c(OC)c1 (configuration not stated)	-4	0	-1.6	0	-3	·	-26
CC(C)NC(=O)CN1CCC(c2ccccc2)C(O)C1 (configuration not stated)	0	1	4.2	3	15	2284	-32
O=S(=O)(NCc1ccccc1)c1cccc2nsnc12	-6	2	8.9	12	8	4629	-10
Cc1cccc(NC(=O)C2Cc3ccccc3OC2=NO)c1 (configuration not stated)	8	2	2.6	·	2	·	·
Cc1ccc(CNC(=O)CN2C(=O)CSc3ccc(S(=O)(=O)N4CCCCC4)cc32)cc1	7	-6	4.4	-5	-11	?	-23
COc1cc(CN/C(C)=C(\C#N)C(N)=O)cc(OC)c1OC	0	2	3.2	10	1	8901	-19
Cc1ccc(Cl)cc1N1CCN(C(=O)Cc2c(C(=O)O)[nH]c3ccccc23)CC1	18	1	10	-10	12	11146	-14
O=C(NNC(=O)c1ccccc1F)c1ccc(S(=O)(=O)N2CCCC2)cc1	4	7	5.7	·	-7	4076	-14
CCOc1ncc(S(=O)(=O)N2CCN(CC)CC2)cc1C(=O)O	-4	1	-2.3	-1	-2	5683	-25
O=C(Nc1ccc(N2CCOCC2)cc1N1CCOCC1)c1ncoc1-c1cccc(F)c1	11	1	2.4	-5	0	3950	-17
CC(=O)Nc1ccc(NC(=O)COC(=O)CCc2nc3ccccc3s2)cc1	9	-8	-1.7	11	0	4439	1
CCC1(c2ccc(F)cc2)NC(=O)N(CC(=O)Nc2ccccc2C)C1=O (configuration not stated)	3	7	1.0	-3	12	5375	-18
CC(Oc1cccc(Cl)c1)C(=O)Nc1cc(Cl)ccc1N1CCOCC1 (configuration not stated)	7	7	-4.3	-5	-22	4729	-16
Cc1ccc(OCC(=O)Nc2ccc(S(=O)(=O)Nc3onc(C)c3C)cc2)cc1	7	10	3.0	2	7	3095	-21
Cc1ccc(OCCCC(=O)Nc2ccc(S(=O)(=O)Nc3cc(C)nc(C)n3)cc2)cc1	0	6	-0.8	3	2	5509	1
Cc1cc(C)n(C(=O)/C(C#N)=N/Nc2cc(Cl)cc(Cl)c2)n1	·	·	·	8	·	5153	-36
COc1ccc(-c2ccc3nnc(SCC(=O)Nc4ccc(NC(C)=O)cc4)n3n2)cc1	4	10	2.1	8	-8	5903	-17
Clc1ccc2c(c1)nc1n2CCCC1	9	10	3.9	4	5	3585	-22
CC1(C)C(=O)Nc2ccccc2N1C(=O)COC(=O)CSc1ccc(Cl)cc1	5	0	13	·	0	3498	-12
O=S(=O)(Nc1ccccc1O)c1ccc(-c2ccccc2)cc1	14	3	13	-13	-11	4424	-19
O=C(Nc1nncs1)C1CC(=O)N(CCc2ccc(F)cc2)C1 (configuration not stated)	6	8	4.5	3	-2	5219	-17
CC1CCCC(NC(=O)C2c3ccccc3C(=O)N2Cc2cccs2)C1C (configuration not stated)	·	·	·	-6	·	7445	-24
Cc1ccc(-c2c3c(=O)n(C)c(=O)n(C)c3cn2N2CCOCC2)cc1	11	-3	-11	0	2	2931	2
CCCCOC(=O)/C=C/c1ccc(OC(=O)OC)c(OC(=O)OC)c1	1	4	5.1	-1	5	2385	-40
CC1CC(C)CN(CCC(=O)Nc2cccc(Cl)c2)C1 (configuration not stated)	13	17	1.4	-6	2	4668	1
CN(C)S(=O)(=O)c1cc(NC(=O)COC(=O)Cc2cccc3ccccc23)ccc1Cl	-2	1	5.3	14	0	10036	-27
CCOc1ccc(S(=O)(=O)N2CCOCC2)cc1NC(=O)CSCC(=O)Nc1ccc(C)cc1	1	5	1.9	0	4	5620	0
C#Cc1ccc(C(=O)Nc2ccc(N3CCC(C)CC3)c(C(N)=O)c2)cc1	2	5	9.3	12	21	4598	-4

New compounds follow.
SMILES	Mtb hypoxia inh	Mtb hypoxia inh growth	RN4220 kill	BJeLR viability	Sa ugtP lethal	Bead autofluor	PrP UTR inh
O=C(Nc1cccc2ccccc12)c1cccc([N+](=O)[O-])c1	15	13	8.0	-1	4	3747	-22
CCn1c(SCC(=O)Nc2cc3oc4ccccc4c3cc2OC)nnc1-c1cccs1	5	9	48	1	-13	7277	-9
COc1ccc(Cc2nc3ccc(C(=O)N(C)CCn4ccnc4)cc3o2)cc1OC	2	6	0.0	10	2	5977	-42
C/C(=N\NS(=O)(=O)c1ccc(C)c([N+](=O)[O-])c1)c1cc2ccccc2o1	·	·	·	-7	·	16518*	-2
O=C(Cc1ccc(Cl)c(Cl)c1)Nc1ccc(SC(F)F)cc1	5	3	-10	1	-17	2032	-16
OCCN1CCN(C(=S)Nc2cccc(C(F)(F)F)c2)CC1	3&-4	9&-4	0.8&-36	2	-5&2	3019&5658	-14&-4
O=C(Cn1cccc1C(=O)c1ccccc1)NCCC1=CCCCC1	2	2	7.3	3	21	4282	-11
O=C(Nc1ccc(S(=O)(=O)Nc2ccccc2)cc1)c1ccc(CN2CCOCC2)cc1	-3	8	-7.2	13	-14	4625	-7
Cc1cc(C)c(S(=O)(=O)N2CCN(C(=O)c3cc(=O)[nH]c4ccccc34)CC2)c(C)c1	-6	-6	9.0	·	9	6474	-8
O=C(c1ccco1)N1CCN(c2ncnc3scc(-c4ccccc4)c23)CC1	·	·	1.5	10	-1	4395	-1
CC1(C)C(c2cccs2)=[N+]([O-])C2(CCCCCC2=NO)N1O (configuration not stated)	2	7	-1.5	·	-2	·	·
CCC(C(=O)NCCC(C)C)N(Cc1ccccc1Cl)C(=O)c1snc(C(N)=O)c1N (configuration not stated)	-7	5	1.6	-9	7	4106	-6
CC1CCC(NC(=O)CCS(=O)(=O)c2ccc3c(c2)NC(=O)C(C)S3)CC1 (configuration not stated)	-5	10	0.9	1	4	5658	-17
C/C(=N/NC(=O)c1ccc(C)s1)c1cccc(NC(=O)c2ccoc2C)c1	·	·	·	-8	·	5913	-15
O=C(CSCc1ccc(F)cc1)NCc1ccco1	-10	10	-2.7	4	-2	14887	-4
O=C1OCCC1Sc1nc(-c2ccccc2)cs1 (configuration not stated)	·	·	1.0	6	8	3885	-7
O=S(=O)(c1ccc(OCC(O)CN2CCCCC2)cc1)N1CCOCC1 (configuration not stated)	-9	-13	-1.3	3	2	9286	2
N#Cc1c(Nc2ccccc2)sc(C(=O)c2ccc(F)cc2)c1N	3	8	5.4	9	-19	2674	2
CC(C)Nc1nc(SC(C)C(=O)Nc2ccccc2)nc(N(C)C)n1 (configuration not stated)	-2	2	11	-4	3	4575	-20
O=C(Cc1cccc2ccccc12)Nc1cc(C(=O)O)cc(C(=O)O)c1	11	1	6.3	3	5	3683	-31
COc1ccc(N2CCN(S(=O)(=O)CCNC(=O)/C=C/c3ccccc3)CC2)cc1	5	4	0.8	5	4	5192	-10
C[C@@H]1CN([C@@H](C)CO)C(=O)c2cc(NS(C)(=O)=O)ccc2O[C@@H]1CN(C)S(=O)(=O)c1ccccc1	1	4	2.2	·	3	3736	-4
O=C(CC(c1ccccc1)c1cc(Cl)ccc1O)NCCCN1CCOCC1 (configuration not stated)	3	15	-0.8	-2	8	3689	-7
C=C(C)[C@H]1CC=C(C)/C(=N/NC(=O)CNc2ccccc2OC)C1	·	·	·	-1	·	15861	-25
